Assay outcomes as filed in PubChem BioAssay.
Vaccinia Venus – inhibitors of vaccinia virus (Venus reporter). Vaccinia virus Venus reporter expression, fluorescence. Potency, µM (titrated, usually from 36.5 µM), for the others: top-dose activity change, negative = inhibition, most hits filed as inhibitors. 0.46% of 330,000 active. AID 720580; active means well fitted inhibition curve with a large enough effect; inconclusive means small, poorly fitted or top-dose-only effect; inactive means no such curve, though single readings can be large or run the other way; tested in A549 cells; note: nearly all actives have a fitted effect of over 30% in size; inactives centre near -10
Vaccinia mCherry – vaccinia inhibition (mCherry reporter); 0.63% of 310,000 active; Potency, µM (top dose mostly 36.5 µM), without a hit: top-dose activity change, negative = inhibition, actives largely listed as inhibitors; Vaccinia virus mCherry reporter infection, fluorescence; about a quarter of the inactives have no number; active = well fitted inhibition curve with a large enough effect; inconclusive = small, poorly fitted or top-dose-only effect; inactive = no such curve, though single readings can be large or run the other way; tested in A549 cells; note: nearly all actives have a fitted effect of over 35% in size; inactives centre near -10
Active calls of the source: *; i = inactive; ? = inconclusive; nt = not tested or not shown; [ ] = another dose, or the depositor's remark. % is set by controls: 0 for no effect and ±100 for the full control effect; potency is the fitted concentration of half-maximal effect.

| structure | Vaccinia Venus | Vaccinia mCherry |
| --- | --- | --- |
| Cc1ccc(/C=N/NC(=O)Cc2ccc(Cl)cc2)c(O)c1 | ? | 22µM* |
| O=C(c1nc2ccc(Cl)cn2c1CN1CCC(CO)CC1)N1CCc2ccccc2C1 | -10% | i |
| COc1ccccc1/C=C(/NC(=O)c1ccccc1)C(=O)NCCN1CCOCC1 | -11% | -1% |
| C#CC[N+](CC)(CC)CC#Cc1cccc(Cl)c1 | -24% | -29% |
| COc1ccc(NC(=S)NCc2ccccn2)cc1OC | -14% | -9% |
| CN(CC(=O)Nc1c(Cl)cccc1Cl)C(=O)C1CSC2(C)CCC(=O)N12 (centres undefined) | -15% | -10% |
| O=C(CCCCCNc1nc(=S)[nH]c2ccccc12)NCCc1ccccc1 | ? | ? |
| CC(C)(C)N(Cc1ccccc1)C(=O)COC(=O)Cn1[nH]c(=O)c2ccccc2c1=O | -7% | i |
| CC(=Nc1cc(C(=O)c2ccccc2)ccc1N)C1=C(O)CC(C)(C)CC1=O | -8% | i |
| CCc1sc(C(=O)Nc2ccc(NC(C)=O)cc2)cc1C | -20% | -17% |

(cont.)
| structure | Vaccinia Venus | Vaccinia mCherry |
| --- | --- | --- |
| O=C(NNC1=Nc2cc([N+](=O)[O-])ccc2OC1)c1ccccc1Cl | -7%[7.34 µM] | -26%[7.34 µM] |
| O=C(CSc1nc(-c2cccs2)nc2cc(=O)[nH]n12)Nc1ccccc1Cl | -13% | -16% |
| Cc1cc2nsnc2c(S(=O)(=O)NCC(=O)O)c1C | -9% | i |
| CCCCCC[n+]1c(-c2ccc(Cl)cc2Cl)csc1Nc1ccccc1 | -5% | i |
| CN1CCc2c(sc(/N=C/c3c[nH]c4ccccc34)c2C#N)C1 | 1%[7.34 µM] | i[7.34 µM] |
| C=CCOc1cccn2c(N(C)C(=O)c3ccccc3F)c(CC)nc12 | -2% | i |
| CC(=O)Nc1ccc(NC(=O)c2nc(SCc3ccccc3C)ncc2Cl)cc1 | -1% | -10% |
| CC(=O)CCc1oc2ccc(C)cc2c1-c1ccc(C)o1 | -10% | -18% |
| CCN(CC)c1ccc(/C=N/NC(=O)c2ccc(Br)o2)cc1 | -25% | -23% |
| C=CC[C@@H](CC(=O)N(CCO)Cc1ccccc1)C(=O)N[C@H](COC(=O)[C@@H](CC=C)Cc1ccc(F)cc1)C(C)(C)C | -20% | -15% |

Reformatted with two lines to a compound: five of the compounds above.
Sequence of screens – Vaccinia Venus	Vaccinia mCherry
CCc1sc(C(=O)Nc2ccc(NC(C)=O)cc2)cc1C
 : -20%	-17%
O=C(NNC1=Nc2cc([N+](=O)[O-])ccc2OC1)c1ccccc1Cl
 : -7%[7.34 µM]	-26%[7.34 µM]
O=C(CSc1nc(-c2cccs2)nc2cc(=O)[nH]n12)Nc1ccccc1Cl
 : -13%	-16%
Cc1cc2nsnc2c(S(=O)(=O)NCC(=O)O)c1C
 : -9%	i
CCCCCC[n+]1c(-c2ccc(Cl)cc2Cl)csc1Nc1ccccc1
 : -5%	i

Additional entries.
| structure | Vaccinia Venus | Vaccinia mCherry |
| --- | --- | --- |
| CCOc1ccc(OCC)c(NC(=O)C2CCCN2S(=O)(=O)c2cccc3cccnc23)c1 (centres undefined) | -14% | -8% |
| CC(NC(=O)CCNC(=O)c1ccc(C(C)(C)C)cc1)c1ccccc1 (centres undefined) | -8% | -23% |
| C=CCn1c(SCc2ccc(C(=O)Nc3nccs3)cc2)nnc1-c1ccc(C)c(Cl)c1 | ? | ? |
| COCCN(C(=O)c1csnn1)C(C(=O)NC1CCCCC1)c1ccc(C)cc1 (centres undefined) | 0% | -13% |
| CCO[C@H]1OC(C(=O)Nc2ccccc2)=C[C@@H](C2CC2)[C@@H]1CCCO | -7% | 13% |
| C/C(=N\NC(=O)NC1CCCCC1)c1ccc(OC(F)F)cc1OC(F)F | -18% | i |
| COC(=O)c1cc([N+](=O)[O-])c(C)c(C)n1 | -7% | -26% |
| COc1cccc(N2CCN(CC(=O)Nc3nnc(-c4ccccc4)s3)CC2)c1 | -26% | ? |
| CCOc1ccccc1NC(=O)COC(=O)/C=C/c1cccs1 | -11% | i |
| COc1ccc(N(CC(O)Cn2nnc3ccccc32)S(=O)(=O)c2ccc(C)cc2)cc1 (centres undefined) | -15% | -1% |

Complete entries, looked up by structure. Order of values: Vaccinia Venus | Vaccinia mCherry
C/C(=N\NC(=O)NC1CCCCC1)c1ccc(OC(F)F)cc1OC(F)F in the list: -18% | i
C=CCn1c(SCc2ccc(C(=O)Nc3nccs3)cc2)nnc1-c1ccc(C)c(Cl)c1 in the list: ? | ?
COc1ccc(N(CC(O)Cn2nnc3ccccc32)S(=O)(=O)c2ccc(C)cc2)cc1 (centres undefined) in the list: -15% | -1%
COCCN(C(=O)c1csnn1)C(C(=O)NC1CCCCC1)c1ccc(C)cc1 (centres undefined) in the list: 0% | -13%

(list continues)
| structure | Vaccinia Venus | Vaccinia mCherry |
| --- | --- | --- |
| Cc1ccc(-n2c(=O)c3ccccc3n(CC(=O)Nc3cccc(C(F)(F)F)c3)c2=O)cc1 | -15% | -1% |
| CC(C)(C)OC(=O)CNC(=O)c1[nH]cnc1C(=O)N[C@@H](Cc1ccccc1)C(=O)OCc1ccccc1 | -5% | -27% |
| COCCN1C(=O)C(=O)/C(=C(/O)c2ccc(C)cc2)C1c1ccccn1 (centres undefined) | 0% | i |
| Cc1[nH]c2ccc(F)cc2c1CCN(Cc1cccnc1)C(=S)Nc1ccccc1 | -15% | -14% |
| COCC(C)NC(=O)C1=CC(c2ccc3c(c2)OCO3)=NS(=O)(=O)N1C (centres undefined) | 1% | -7% |
| O=C(c1cc2ccccc2s1)N1CCOCC1 | -13% | i |
| N/C(=N\OC(=O)c1csnn1)c1ccc(C(F)(F)F)cc1 | 0% | i |
| O=C(Nc1ccc(Cl)cc1C(=O)N1CCCCC1)c1ccco1 | 3% | 13% |
| CNC[C@H]1Oc2c(NC(=O)C3CC3)cccc2C(=O)N([C@H](C)CO)C[C@@H]1C | -13% | -14% |
| CCOC(=O)c1ccc(NC(=O)c2c(N)n(C)c(=O)n(C)c2=O)cc1 | -6% | i |

The results go on.
| structure | Vaccinia Venus | Vaccinia mCherry |
| --- | --- | --- |
| O=C(C1CCCN(c2ncnc3c2nc2n3CCCCC2)C1)N1CCCCC1 (centres undefined) | 6% | -9% |
| COc1ccc2ccc(OCC(=O)NCC3CCCO3)cc2c1 (centres undefined) | -16% | -12% |
| COc1cc(NC(=O)c2ccc(COCC(F)(F)F)o2)cc(OC)c1OC | -1% | i |
| O=C(C[C@H]1C/C=C\C[C@@H](Cc2ccc(F)cc2)C(=O)OC[C@@H]2CCCN2C1=O)NCCO | 3% | i |
| O=C(CCc1nnc(C2(c3ccc(Cl)cc3)CCC2)o1)NC1CC1 | -14% | -28% |
| O=C(NC1CCCC1)C1CC(=O)N(c2ccc(F)cc2)C1 (centres undefined) | -7% | -7% |
| C=CCN(C(=O)CSc1nnnn1C)c1nc(-c2ccccc2)cs1 | -8% | -10% |
| O=C(C[C@@H]1C/C=C/CCCC(=O)O[C@H](c2ccccc2)CNC1=O)NCCO | -15% | -17% |
| Cc1cc(=O)oc2cc(OCC(=O)OCC(=O)Nc3c(C)n(C)n(-c4ccccc4)c3=O)ccc12 | -18% | -19% |
| O=C(/C=C/c1ccccc1)Nc1cccc(C(=O)O)c1 | -6% | -11% |

New compounds follow.
| structure | Vaccinia Venus | Vaccinia mCherry |
| --- | --- | --- |
| Cn1cnnc1SCc1ccc(C(=O)N=Nc2c(O)n(C)c3ccccc23)cc1 | 0% | 35%[activator] |
| CCn1c2ccccc2c2nnc(SCc3ccc(C(=O)OC)o3)nc21 | -22% | -6% |
| CC(C)(C)C1=C(C#N)C(c2ccc3c(c2)OCO3)C(C#N)=C(N)O1 (centres undefined) | -14% | nt |
| CCN(CC(=O)Nc1ccc(NC(C)=O)cc1)C(=O)C(c1ccccc1)c1ccccc1 | -14% | i |
| CCOc1ccc(N(CC)C(=O)c2nn(-c3ccc(OC)cc3)c(=O)c3c2c2ccccc2n3C)cc1 | -13% | -20% |
| CCO[C@@H]1OC(C(=O)NCc2ccccc2)=C[C@H](C2CC2)[C@H]1CCCO | -17% | i |
| COc1ccc(CN(C(=O)COc2ccccc2OC)C2CCS(=O)(=O)C2)cc1 (centres undefined) | -4% | 0% |
| O=C(CCC(=O)c1cccs1)Nc1ccc(F)c(F)c1F | -19% | -12% |
| COC(=O)c1sccc1S(=O)(=O)NC(C)c1cnn(-c2ccc(OC)cc2)c1C (centres undefined) | -18% | -8% |
| CN(CC(=O)Nc1ccc(F)c(F)c1F)C(=O)C1CCC1 | -8% | -18% |

Additional results
| structure | Vaccinia Venus | Vaccinia mCherry |
| --- | --- | --- |
| CCOP(=O)(OCC)C(C#N)=C1SCN(c2ccc(Cl)cc2)CS1 | -14% | ? |
| COC(=O)c1c(NC(=O)COC(=O)c2ccc(Cl)cc2[N+](=O)[O-])sc2c1CCCCC2 | 1% | -25% |
| CC(C)[C@H](NC(=O)c1ccco1)C(=O)OCc1cc(=O)n2c(n1)sc1ccccc12 | -6% | -10% |
| Fc1ccccc1COc1cccc2cccnc12 | -24% | i |
| COC(=O)c1c(NC(=O)COc2cc(C)c(Cl)c(C)c2)sc2c1CCCC2 | -8% | -11% |
| COc1ccccc1CNCc1ccc(OC)c2ccccc12 | -14% | -28% |
| COc1ccc(C(=O)NCCC(=O)N2CCC3(CC2)NCCc2[nH]cnc23)cc1 | 0%[7.34 µM] | i[7.34 µM] |
| COCCn1c(=NC(=O)CCS(=O)(=O)c2ccccc2)sc2ccccc21 | -8% | -5% |
| Cc1ccc(-c2nnc3c4ccccc4c(-c4ccccc4)nn23)cc1 | -5% | -9% |
| Cc1ccc(CN(Cc2ccco2)C(=S)NCC(=O)NC2CC2)cc1 | -4% | i |

Overlap with the part before: 3 entries, then new ones.
| structure | Vaccinia Venus | Vaccinia mCherry |
| --- | --- | --- |
| COCCn1c(=NC(=O)CCS(=O)(=O)c2ccccc2)sc2ccccc21 | -8% | -5% |
| Cc1ccc(-c2nnc3c4ccccc4c(-c4ccccc4)nn23)cc1 | -5% | -9% |
| Cc1ccc(CN(Cc2ccco2)C(=S)NCC(=O)NC2CC2)cc1 | -4% | i |
| O=C(CCN1C(=O)/C(=C/c2ccc(F)cc2)SC1=S)NNC(=O)c1ccncc1 | -11% | i |
| O=C1CC(c2ccccc2)CC(=NCCO)/C1=C(\O)CCCN1C(=O)c2ccccc2C1=O (centres undefined) | -3% | i |
| Cc1cccc(S(=O)Cc2ccc(C(=O)N3CCN(C(=O)c4ccco4)CC3)o2)c1 (centres undefined) | 3%[7.34 µM] | -12%[7.34 µM] |
| O=C(c1ccccc1Cc1ccccc1)N1CCN(S(=O)(=O)c2ccc(F)cc2)CC1 | -2% | i |
| CCOCCCNC(=O)COC(=O)/C=C/c1ccc(S(=O)(=O)N2CCc3ccccc32)cc1 | -5% | -8% |
| COCC(=O)Nc1nc2ccccc2s1 | -16% | -14% |
| O=C(COC(=O)c1cc(Br)ccc1O)NNC(=O)c1ccc([N+](=O)[O-])cc1 | -4% | -16% |
| O=C(COC(=O)c1ccccc1-n1cnnn1)c1ccc(F)cc1 | -8% | -25% |
| CN(C)c1cccc(C(=O)Nc2nc3ccccc3[nH]2)c1 | -24% | -30% |
| Cc1cccc(C)c1OCC(=O)Nc1oc(-c2ccccc2)c(-c2ccccc2)c1C#N | -21% | -10% |

New compounds follow:
| structure | Vaccinia Venus | Vaccinia mCherry |
| --- | --- | --- |
| CCOc1ccccc1NC(=O)CSc1nc2c(c(=O)n(C)c(=O)n2C)n1C | 3% | -6% |
| COc1ccc(S(=O)(=O)N(C)C[C@H]2Oc3c(NC(=O)CCC(F)(F)F)cccc3C(=O)N([C@H](C)CO)C[C@@H]2C)cc1 | -18% | i |
| O=C(NCCCCNC(=O)c1ccccc1Cl)c1ccccc1Cl | -13% | -1% |
| COc1ccc(C)cc1NC(=O)c1noc2c1CSc1ccccc1-2 | -15% | -16% |
| CC(C)CCNc1ncnc2c1cnn2-c1cccc(Cl)c1 | -16% | -18% |
| CC(=O)c1c(N2CCOCC2)nc(=S)n(-c2cc(C)ccc2C)c1C | 0% | i |
| O=Cc1cccnc1SCc1ccccc1 | -3% | -15% |
| CC(C)NCC(O)c1ccc(C2CCCC2)cc1 (centres undefined) | -10% | i |
| Cc1c(CCO)c(=O)n(-c2ccccc2)n1S(=O)(=O)c1ccc(Cl)cc1 | 0% | -5% |
| CC(C)(C)OC(=O)CNC(=O)c1nc[nH]c1C(=O)N1CCN(C(=O)OC(C)(C)C)CC1 | -2% | -12% |
| CN(CC(=O)Nc1cccc(F)c1)C(=O)CN1C(=O)C2CC=CCC2C1=O (centres undefined) | -11% | -10% |
| Cc1cc(C)c(S(N)(=O)=O)c(C)c1N(C)S(=O)(=O)c1ccccc1 | -5% | -13% |
